ClpP mod = qHTS Assay for Activators of ClpP; Potency, µM (series often up to 57.5 µM), inactives show top-dose activity change, negative = active; 340,000 compounds, 1.9% hits; AID 651965, 2013; purified B. subtilis ClpP, FRET peptide cleavage, 20 min; active = well fitted falling curve with a large enough effect; inconclusive = small, poorly fitted or top-dose-only effect; inactive = no such curve, though single readings can be large or run the other way; note: potency is the fitted concentration of half-maximal effect; the source files actives as falling curves though it sought activators and does not explain the sign; nearly all actives have a fitted effect of over 65% in size; many hits overshoot -100%
Target sequence (P80244 whole entry, looked up): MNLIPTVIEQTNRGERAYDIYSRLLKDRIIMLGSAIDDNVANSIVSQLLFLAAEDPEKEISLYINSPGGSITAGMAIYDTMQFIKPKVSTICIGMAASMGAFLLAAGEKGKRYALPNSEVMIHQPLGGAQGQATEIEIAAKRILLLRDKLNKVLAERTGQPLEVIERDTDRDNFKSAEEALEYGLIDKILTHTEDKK
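FRET quenching reversal measured ClpP activation: 10 microg/mL B. subtilis ClpP at pH 8 with the FRET-FV decapeptide, read at 430 nm after 320 nm excitation. The 20-min minus 0-min signal was scaled between DMSO/no-enzyme wells and ADEP (5.8 microM final).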
Sfp PPTase inh = qHTS Assay for Inhibitors of Bacillus subtilis Sfp phosphopantetheinyl transferase (PPTase). Biochemical Sfp PPTase activity, qHTS. Potency, µM, without a hit: max response, negative = inhibition, usual class: inhibitors. 310,000 compounds, 3.5% hits; active = well fitted inhibition curve with a large enough effect; inconclusive = small, poorly fitted or top-dose-only effect, or another doubt; inactive = no such curve, though single readings can be large or run the other way;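 note: the enzyme is Sfp with the accession as filed and its product quenches rhodamine fluorescence; potency is the fitted concentration of half-maximal effect; 0% = enzyme reaction without inhibitor and -100% = no enzyme wells; top concentration of the series not given in the record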
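Sfp 15 nM + cpd, 15 min RT; start w/ rhodamine-CoA 5 uM, BHQ-2-YbbR 12.5 uM (final); 50 mM Hepes pH 7.6, 10 mM MgCl2, 0.01% NP-40, 0.01% BSA; read 525/598 nm at 0 and 30 min.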
TRPV1 PAM = HTS Assay for Compounds that Act as Potentiators of the Vanilloid Receptor 1; Transient receptor potential cation channel subfamily V member 1 (Homo sapiens), Q8NER1; TRPV1-expressing cells, Fluo-8 calcium influx, capsaicin EC20 potentiation; host cell line not named in the record; control for the full effect not named in the record; potentiation, % at 8.33 µM; 320,000 compounds, 0.02% hits; AID 540277, 2011; active means potentiation above 80%; inconclusive means 30% to 80%; inactive means below 30%; note: 0% is about no effect
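TRPV1-expressing cells were cultured overnight at 35.5C and loaded with Fluo-8 calcium dye for 40 to 90 min at room temperature. After a 10 s baseline, compound was added and calcium influx was read kinetically for 3 min (ex 480/em 520 nm).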
gsp agonist = qHTS for Agonist of gsp, the Etiologic Mutation Responsible for Fibrous Dysplasia/McCune-Albright Syndrome: qHTS | AID 624287, 2012 | gsp mutant cells, cAMP HTRF, 30 min; control for the full effect not named in the record | 340,000 compounds, 0.13% hits | Potency, µM (series often up to 76.9 µM), inactives show top-dose activation (cAMP increase), usual class: activators; active = well fitted activation curve with a large enough effect; inconclusive = small, poorly fitted or top-dose-only effect, or another doubt; inactive = no such curve, though single readings can be large or run the other way; cell line not stated here;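 note: phosphodiesterase inhibitor Ro 20-1724 added with compounds to block cAMP breakdown; potency is the fitted concentration of half-maximal effect; nearly all actives have a fitted effect of over 60% in size; about a fifth of the inactives were tested at one dose only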
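Cells in DMEM/10% FBS with G418 were pretreated with compounds in DMSO plus […] (300 uM stock) for 30 min at 37C. cAMP was measured by HTRF (cAMP-d2 plus anti-cAMP antibody-K) after 30 min at room temperature.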
Menin MLL FP FL = qHTS Assay for Inhibitors Targeting the Menin-MLL Interaction in MLL Related Leukemias: Competition With Fluorescein Labeled MLL-derived Peptide | FP activity change, % at 61.4 µM | Fluorescence polarization, fluorescein-MLL peptide displacement from menin | 290,000 tested, under 10 active; inconclusive = falling polarisation curve, or a change in total fluorescence; inactive = total fluorescence flat and polarisation flat or rising; no compound was filed as active; the % refers to the polarisation; negative = inhibition;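 note: % of control where 0% means no effect; inhibitors lower the polarisation; unlabelled MLL peptide was the positive control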
TRPML1 inh = qHTS for Inhibitors of the Human Mucolipin Transient Receptor Potential 1 (TRPML1) | activity change, negative = inhibition, % (concentration not given with the values) | 390,000 compounds, 0.02% hits | TRPML1-inducible cells, Ca2+ dye fluorescence, FDSS; stronger effect = lower value; inhibition of EC80 agonist-evoked calcium signal | Mucolipin-1 (Homo sapiens), Q9GZU1; in the data active means activity change below about -50%; inconclusive means about -30% to -50%; inactive means above about -30%;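 note: stimulus is agonist 54-4 at its EC80 concentration; % is set by controls: 0 for no effect and ±100 for the full control effect; the text of the record puts the active cut at -80%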
Target sequence (Q9GZU1 whole entry, looked up): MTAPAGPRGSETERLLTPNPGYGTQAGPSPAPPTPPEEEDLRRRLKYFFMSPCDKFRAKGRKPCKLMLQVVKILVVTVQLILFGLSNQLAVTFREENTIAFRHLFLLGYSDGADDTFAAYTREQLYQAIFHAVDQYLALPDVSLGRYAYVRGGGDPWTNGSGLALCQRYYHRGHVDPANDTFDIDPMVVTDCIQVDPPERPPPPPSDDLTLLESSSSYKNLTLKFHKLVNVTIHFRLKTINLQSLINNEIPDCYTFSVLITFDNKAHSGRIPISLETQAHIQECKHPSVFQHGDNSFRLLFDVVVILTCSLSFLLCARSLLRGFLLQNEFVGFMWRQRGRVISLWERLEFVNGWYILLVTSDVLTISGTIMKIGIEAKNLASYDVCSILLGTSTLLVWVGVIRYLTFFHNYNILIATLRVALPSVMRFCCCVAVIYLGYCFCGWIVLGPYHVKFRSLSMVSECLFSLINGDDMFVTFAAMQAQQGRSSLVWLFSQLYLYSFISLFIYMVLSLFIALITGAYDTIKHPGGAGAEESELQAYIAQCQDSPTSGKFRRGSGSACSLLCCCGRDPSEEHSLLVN
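TRPML1-DL cells, Tet-induced overnight (~16 h, 37 °C) at 1,500 cells/well, were loaded with Ca8 no-wash dye plus quencher for 45-90 min at room temperature. Compounds were pinned during FDSS kinetic reading; agonist 54-4 at EC80 (4 uM final) then added.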
gsp antagonist = qHTS for Antagonists of gsp, the Etiologic Mutation Responsible for Fibrous Dysplasia/McCune-Albright Syndrome: qHTS | gsp-mutant cells, cAMP HTRF, 30 min; control for the full effect not named in the record | Potency, µM (series often up to 76.9 µM), inactives show at the top dose activity change, negative = inhibition, hits mostly inhibitors | 340,000 compounds, 0.4% hits | AID 624288, 2012; active = falling curve of any shape with a large fitted effect; inconclusive = falling curve, mostly with a smaller effect; inactive = flat or rising curve; cell line not stated here;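 note: intracellular cAMP measured with PDE inhibitor Ro 20-1724 present during compound exposure; potency is the fitted concentration of half-maximal effect; % is set by controls: 0 for no effect and ±100 for the full control effect; nearly all actives have a fitted effect of over 65% in size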
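Cells, 2000/well, grown 16–24 h in DMEM 10% FBS with 0.5 mg/ml G418, then compounds plus […] (300 uM addition stock), 30 min at 37C. cAMP read by HTRF (cAMP-d2 and anti-cAMP antibody-K in lysis buffer) after 30 min RT.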
* hit, by the source's call; ? = inconclusive; . = not tested or not shown; [ ] = dose if it differs, or a comment.

SMILES	ClpP mod	Sfp PPTase inh	TRPV1 PAM	gsp agonist	Menin MLL FP FL	TRPML1 inh	gsp antagonist
O=C(NCCc1ccc(Cl)cc1)c1cccc(NC2=NC3CS(=O)(=O)CC3S2)c1 (centres undefined)	4.1%	0%	-7	21%	0.9	-2	8%
COc1ccc(C(=O)Nc2ccc(S(=O)(=O)N3CCOCC3)cc2)cc1[N+](=O)[O-]	-0.7%	35%[activator]	?	-1%	1.7	9	-16%
CCNC(=S)Nc1ccc(C)c(Cl)c1	.	-11%	-4	24%	7.6	-13	3%
O=C(Cc1c(O)c2ccccc2[nH]c1=O)NCc1cccc(F)c1	28µM*	21%	-9	19%	3.2	11	-19%
O=C(CCN1C(=O)/C(=C/c2ccccc2Cl)SC1=S)NN1CCOCC1	-2.9%	-6%	1	14%	1.4	-4	1%
COc1ccc(NC(=O)C2=NN(c3ccccc3)C(=O)CC2)cn1	0.3%	.	-7	24%	.	-6	3%
O=C(Nc1ccc(Cl)cc1)NN1CC(=O)N(c2cccc(C(F)(F)F)c2)CC1=O	.	12%	2	-6%	-0.9	7	6%
COc1cc(/C=C(\C#N)C(=O)N2CCCCC2)ccc1O	1.2%	16%	0	-6%	16	12	-7%
CCOCCOCCC(C(=O)O)P(=O)(c1ccccc1)c1ccccc1 (centres undefined)	1.8%	5%	4	-31%[inhibitor]	2.6	13	13%
CCc1[nH]nc(C(=O)N2CCCC(N3CCN(c4ccccc4C)CC3)C2)c1C (centres undefined)	-1.6%	6%	-6	-19%	2.0	-3	-19%
FC(F)(F)c1ccccc1NC(=S)Nc1cccc2cnccc12	.	20µM*	0	14%[15.4 µM]	-2.4	19	-5%
OCC[C@H]1C[C@@H](O)[C@H](O)[C@@]2(CCCc3ccccc3O2)O1	-11%	.	-43	.	.	-14	11%
COc1ccc(-c2noc(CCC(=O)NCCc3cccc(C)c3)n2)cc1	1.5%	-2%	-5	-31%[inhibitor]	-0.4	18	-27%
COc1ccc(CN2C(=O)C(CC(=O)NCCc3ccccn3)CC(C(=O)N(C(C)C)C(C)C)=C2C)cc1 (centres undefined)	-1.5%	.	.	-46%[inhibitor]	.	3	.
CC1(C)Cc2nc3sc4c(SCC(=O)NCc5ccccc5)ncnc4c3cc2CO1	-3.6%	17%	5	-68%[inhibitor]	2.2	6	5%
O=C(NC1=NCCS1)c1ccc(Cl)c(S(=O)(=O)N2CCCCCC2)c1	0.3%	7%	-23	-39%[inhibitor]	-1.1	17	?
CC(/C=C/c1ccccc1)=N\NC(=O)Cn1nc(C)cc1C	-0.6%	-8%	-13	-7%[15.4 µM]	.	2	11%
CCOC(=O)c1ccc(N2C(=O)Cc3ccccc3C2=O)cc1	.	12%	?	-2%	6.6	5	2%
CCOc1ccccc1OCC(=O)OCC(=O)Nc1ncc(Cl)cc1Cl	0.4%	7%	25	10%	0.8	9	1%
O=C(CN1CCC(C(=O)O)CC1)Nc1ccccc1Oc1ccccc1	.	16%	?	-17%	1.3	1	-9%
Cc1ccc(C(O)Cn2nc(C)cc2C)cc1 (centres undefined)	0.2%	.	-10	.	.	-4	12%
Cc1cc(C(=O)O)ccc1-n1c(C)cc(/C=C2\SC(=O)NC2=O)c1C	.	4%	7	-59%[inhibitor]	4.5	12	-7%
Cc1[nH]nc2ncc(C(=O)c3cc(F)ccc3O)cc12	0.4%	-3%	-3	21%	2.2	-2	-1%
NC(=O)CC(NC(=O)c1ccccc1)c1ccc(NC2CCC2)c([N+](=O)[O-])c1 (centres undefined)	0.5%	-3%	16	.	0.7	1	9%

Only Menin MLL FP FL, TRPV1 PAM and ClpP mod (2 entries from above):
| SMILES | Menin MLL FP FL | TRPV1 PAM | ClpP mod |
| --- | --- | --- | --- |
| COc1ccc(-c2noc(CCC(=O)NCCc3cccc(C)c3)n2)cc1 | -0.4 | -5 | 1.5% |
| COc1ccc(CN2C(=O)C(CC(=O)NCCc3ccccn3)CC(C(=O)N(C(C)C)C(C)C)=C2C)cc1 (centres undefined) | . | . | -1.5% |

The list goes on.
SMILES	ClpP mod	Sfp PPTase inh	TRPV1 PAM	gsp agonist	Menin MLL FP FL	TRPML1 inh	gsp antagonist
Cc1ccccc1NC(=O)c1cccc(S(=O)(=O)N2CCCCC2)c1	.	7%	18	-13%	-2.4	-4	3%
CCCN(CCC)C(=O)CC(c1ccccc1)c1ccc(C)cc1O (centres undefined)	0.8%	-1%	12	-8%	-1.9	15	-8%
C/C(Cn1cnc([N+](=O)[O-])n1)=N\NC(=O)c1ccccc1	-0.9%	-8%	0	-42%[inhibitor]	3.3	42	8%
O=C(NCc1ccco1)c1cccc2c1C(=O)c1ccc(/C=C/c3ccccc3)cc1S2(=O)=O	3.6%	.	.	-26%	.	-2	-1%
O=[N+]([O-])c1cc(Br)c(O)c(/C=N/Nc2nnnn2-c2cccc3ccccc23)c1	-0.9%	3%	14	-52%[inhibitor]	19	-9	?
COc1ccc(-n2cnnc2SCC(=O)Nc2cc(C(C)(C)C)nn2-c2ccccc2)cc1	-2.5%	17%	8	7%	-0.1	-2	-5%
COCCCNC(=S)N1CCN(C(=O)c2ccco2)CC1	0.7%	10%	-22	-5%	-0.4	9	10%
CC(=O)OC[C@H]1O[C@@H](O[C@H]2C[C@]3(C)C(C[C@@H](O)C4C([C@]5(C)CC[C@@H](C(C)(C)O)O5)CC[C@]43C)[C@@]3(C)CC[C@H](O)C(C)(C)C23)[C@H](O[C@@H]2O[C@@H](C)[C@H](O)[C@@H](O)[C@H]2O)[C@@H](O)[C@@H]1O (some centres undefined)	2.5%	.	.	.	.	30	-1%
CCCNC(=O)CSc1nc(Cc2ccccc2)nc2ccccc12	-1.7%	8%	-34	-5%	3.9	3	-1%
CC(C)(C)c1nnc(NC(=O)C2CC(=O)N(CCc3ccc(F)cc3)C2)s1 (centres undefined)	-0.5%	?	24	6%[15.4 µM]	-3.4	20	-1%
CCOc1ccc(N2C(=O)CNC2=S)cc1	.	14%	8	30%[15.4 µM]	?	-3	-5%
CN1C[N+]([O-])=C(c2ccccc2)C1(C)C	0.1%	3%	30	-12%	0.5	-2	7%

In the list so far, 4 have a nitro group on carbon.
SMILES	ClpP mod	Sfp PPTase inh	TRPV1 PAM	gsp agonist	Menin MLL FP FL	TRPML1 inh	gsp antagonist
COc1ccc(C(=O)Nc2ccc(S(=O)(=O)N3CCOCC3)cc2)cc1[N+](=O)[O-]	-0.7%	35%[activator]	?	-1%	1.7	9	-16%
NC(=O)CC(NC(=O)c1ccccc1)c1ccc(NC2CCC2)c([N+](=O)[O-])c1 (centres undefined)	0.5%	-3%	16	.	0.7	1	9%
C/C(Cn1cnc([N+](=O)[O-])n1)=N\NC(=O)c1ccccc1	-0.9%	-8%	0	-42%[inhibitor]	3.3	42	8%
O=[N+]([O-])c1cc(Br)c(O)c(/C=N/Nc2nnnn2-c2cccc3ccccc23)c1	-0.9%	3%	14	-52%[inhibitor]	19	-9	?

Next part
SMILES	ClpP mod	Sfp PPTase inh	TRPV1 PAM	gsp agonist	Menin MLL FP FL	TRPML1 inh	gsp antagonist
O=C(Nc1ccccc1Cl)Nc1ccnn1C1CCN(C(=O)c2cscn2)CC1	-2.3%	12%	-4	3%[15.4 µM]	.	-12	-13%
CC(C(=O)N(C)C1CCS(=O)(=O)C1)N1C(=O)/C(=C/c2ccc(F)cc2)SC1=S (centres undefined)	-0.6%	50µM*	19	12%	.	-3	-15%
CC1CCCCN1C(=O)C12CCC(C)(/C(=N/O)C1)C2(C)C (centres undefined)	1.4%	7%	-2	15%	0.1	3	-8%
O=C(Cc1ccc(F)cc1)OCC(=O)N1CCN(S(=O)(=O)c2ccc(Cl)cc2)CC1	-1.5%	.	-2	-10%[15.4 µM]	.	-7	-12%
O=C(Cc1c(F)cccc1Cl)N1CCCC1	0.3%	9%	-1	-42%[inhibitor]	5.3	10	5%
Cc1ccc(S(=O)(=O)N2CCCCC2C)cc1[N+](=O)[O-] (centres undefined)	1.4%	5%	-18	-4%[15.4 µM]	-7.0	-6	-8%
O=C(NCc1ccc2c(c1)OCO2)c1ccc(Cl)s1	-4.4%	-12%	-9	4%[15.4 µM]	0.5	40	0%
CS(=O)(=O)N(CC(=O)Nc1ccccc1C(=O)N1CCOCC1)c1cccc([N+](=O)[O-])c1	-1.0%	26%	6	27%	.	2	7%
Cc1ccccc1N(C(=O)Cc1cccs1)C(C(=O)NCC1CCCO1)c1cccnc1 (centres undefined)	-0.1%	-10%	-19	-15%	-9.6	21	-12%
COCC(=O)NCc1nc2ccccc2[nH]1	0.6%	11%	1	-7%	3.0	-6	6%
COc1ccc(C2C(C(=O)c3ccco3)=C(O)C(=O)N2c2nnc(C)s2)cc1OC (centres undefined)	.	-23%	-20	12%[15.4 µM]	-14	13	-1%
Cc1cccc(C(=O)NNC(=O)c2ccccc2C)c1	0.3%	-1%	-2	-4%	-3.8	-7	9%

3 compounds already listed, arranged by the number in gsp agonist, falling:
Structure	gsp agonist
CS(=O)(=O)N(CC(=O)Nc1ccccc1C(=O)N1CCOCC1)c1cccc([N+](=O)[O-])c1	27%
CC(C(=O)N(C)C1CCS(=O)(=O)C1)N1C(=O)/C(=C/c2ccc(F)cc2)SC1=S (centres undefined)	12%
COCC(=O)NCc1nc2ccccc2[nH]1	-7%

High-throughput results: PubChem, National Center for Advancing Translational Sciences (NCATS)
